Screens from PubChem.
BJeLR lethal: kills HRASV12-expressing BJeLR cells; BJeLR (HRASV12) viability, CellTiter-Glo ATP luminescence, 48 h; reference of the scale not given here; inhibition, % (concentration not given with the values); AID 1554; 300,000 tested, 0.17% active;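 active = replicate mean above 50%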;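 also: 50 nL library stock added to about 25 µL; numbers are from one replicate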
An asterisk follows results filed as active. Only part of the results is shown; the hit share may differ from the screen's.

entry	Compound	BJeLR lethal
1	O=C(/C=C/c1cn(CC(O)CN2CCOCC2)c2ccccc12)c1cccs1 (centres undefined)	-7.2
2	CN1Cc2cc(C(=O)c3cc(Cl)cc(CSc4ncccn4)c3O)cnc2NC1=O	24.8
3	CCOc1cc2nc(-c3ccc(OC)c(OC)c3)nc(N3CC(C)OC(C)C3)c2cc1OC (centres undefined)	-4.5
4	O=C1/C(=N/n2cnnc2)c2ccccc2N1Cc1ccccc1	-3.3
5	CC1(c2nnc(-c3ccc(F)cc3)o2)CC(c2ccncc2)=NO1 (centres undefined)	0.0
6	CCC(C)n1c(-c2cc(OC)c(OC)c(OC)c2)nc2nc3ccccc3nc21 (centres undefined)	-3.3
7	CCC/C=C(\CCC)C(NS(=O)(=O)c1cccc2cccnc12)c1ccc(C(=O)OC)cc1 (centres undefined)	1.5
8	CC/C(=N\NS(C)(=O)=O)c1ccccc1	1.4
9	O=[N+]([O-])c1ccc(O)c(C=Nc2ccc3oc(Cc4ccc(Cl)cc4)nc3c2)c1	-1.9
10	Cc1ccc(NC(=O)OCc2cccs2)cc1	-5.6
11	Brc1c(NC2=NCCN2)ccc2nccnc12	-5.8
12	O=C(Cc1ccccc1[N+](=O)[O-])OCc1cccc([N+](=O)[O-])c1	5.9
13	CCN1C(=O)NC(=O)/C(=C\c2cn(CC(=O)O)c3ccccc23)C1=O	-3.4
14	CCC(=O)OC1(C)C(=O)C=C2C=C(CCCCNC(=O)OC(C)(C)C)OC=C2C1=O (centres undefined)	-6.7
15	Cc1ccc(/C=C/C2=Cc3c(sc(NC(=O)CSc4n[nH]c(N)n4)c3C#N)C(C)(C)C2)o1	2.9
16	COC(=O)CCC(=O)c1ccc(OC)c(Cl)c1	8.1
17	C#CCOCCOCCOCCNc1nc(N2CCN(C(=O)[C@H]([C@@H](C)CC)n3cc([C@@H](N)CC(C)C)nn3)CC2)nc(N2CCN(C(=O)[C@H](Cc3ccc(O)cc3)n3cc([C@@H](N)CC(C)C)nn3)CC2)n1	-0.7
18	CCOC(=O)c1c(C)[nH]c(C=Nc2ccccc2)c1O	-11.3
19	CC(C)(C#CCCCCC#CC(C)(C)[N+](C)(C)C)[N+](C)(C)C	7.4
20	O=C1NC(=O)C(=C/C=C/c2coc3ccc(Br)cc3c2=O)C(=O)N1	-0.3

entry	Compound	BJeLR lethal
21	C=CCNc1ccc(N2C(=O)C3CCC(C)CC3C2=O)cc1[N+](=O)[O-] (centres undefined)	4.7
22	CCOC(=O)c1[nH]c2ccc(Br)cc2c1NC(=O)CCN1CCCC(C)C1 (centres undefined)	9.8
23	C/C(=N/NC(=O)C(=O)N/N=C(/C)c1ccccc1)c1ccccc1	-6.1
24	Cc1nnc(NC(=O)C2C3C=CC(O3)C2C(=O)O)s1 (centres undefined)	1.2
25	O=c1[nH]c(-c2ccc(Cl)cc2)nc2c1cnn2-c1ccccc1	-6.5
26	CC(=O)Nc1ccc(N2CCc3c(C)c(C#N)c4nc5ccccc5n4c32)cc1	6.4
27	N#Cc1c(Cl)c(Cl)c2nnc(-c3ccc(Br)cc3)n2c1Cl	10.7
28	COc1ccc2c(c1O)C(=O)c1ccccc1C2=O	-1.5
29	O=C(O)/C=C/C(=O)Nc1ccc(Oc2ccc(NC(=O)/C=C/C(=O)O)cc2)cc1	11.4
30	Cn1c(=O)c2c(nc(/C=C/c3cccc(Cl)c3)n2C)n(C)c1=O	13.4
31	CCC(=O)N1CCN(c2ccc(NC(=O)c3ccc(-c4ccccc4)cc3)cc2)CC1	1.0
32	COC(=O)[C@H](Cc1ccccc1)NC(=O)O[C@@H]1C(=O)c2cc(OC)ccc2O[C@H]1c1ccc(OC)c(Br)c1	-1.7
33	CCOC(=O)C1=C(C)N=c2s/c(=C/c3ccco3)c(=O)n2C1c1cccc(OC)c1 (centres undefined)	-2.4
34	CCCCCCCC1CC(=O)C=C(C)C1C(=O)OCC (centres undefined)	-1.7
35	C=C(C=O)C[C@@H]1C[C@H](O)C2OC3C[C@]4(C)OC5/C=C\CC6OC7C(CC=CCC6OC5CCCC4OC3CC2O1)OC1CC2OC3CC(=O)OC3C[C@@H](C)C[C@@]2(C)OC1C[C@@H]7C (some centres undefined)	95.2*
36	C#CCOCCOCCOCCNc1nc(N2CCN(C(=O)C([C@@H](C)CC)n3cc(C(N)COC(=O)C(F)(F)F)nn3)CC2)nc(N2CCN(C(=O)[C@H](Cc3cc4ccccc4[nH]3)n3cc(C(N)CO)nn3)CC2)n1 (some centres undefined)	3.6
37	O=C1Nc2ccc(Cl)cc2[C@@](C#CC2CC2)(C(F)(F)F)O1	-10.2
38	Cc1ccc(-n2[nH]c(C)c(/C=N/NC(=O)c3cccc([N+](=O)[O-])c3)c2=O)cc1C	30.2
39	O=C(Nc1ccccc1)N1CC=C(c2ccccc2)CC1	0.1
40	Cc1ccc(C(=O)C2=C(O)C(=O)N(Cc3cccnc3)C2c2cccc(Oc3ccccc3)c2)o1 (centres undefined)	3.4

entry	Compound	BJeLR lethal
41	O=C(OCn1ncc(Cl)c(Cl)c1=O)c1ccc(F)cc1	-32.7
42	COC(=O)/C(=C(/F)SCC(C)=O)C(F)(F)F	3.8
43	Cc1sc2ncnc(Sc3nnc4sc5ccccc5n34)c2c1C	-15.7
44	O=C(COC(=O)c1cn(-c2ccccc2)nc1-c1ccccc1)c1ccc([N+](=O)[O-])cc1	2.6
45	CN1C(=O)N(C)C2(c3ccccc3)Nn3c(s/c(=C/c4ccccc4F)c3=O)=NC12c1ccccc1 (centres undefined)	3.8
46	C=CCn1c(=O)/c(=C2/Sc3cc(OC)ccc3N2C)s/c1=C1\C(=O)N(CC)C(=S)N1C	2.1
47	O=S1(=O)c2ccccc2N=NN1Cc1cc(Cl)cc(Cl)c1	4.9
48	N#Cc1cc(NC(=O)c2ccc(F)cc2)c(=O)n2c1[nH]c1ccccc12	8.7
49	CCC[C@@H]1C[C@@]1(CCC)[C@@H](NP(=O)(c1ccccc1)c1ccccc1)c1ccc(C(=O)OC)cc1	1.2
50	Cc1ccc2nc(NC(=O)C3CCCN(S(=O)(=O)c4cccc5nonc45)C3)sc2c1 (centres undefined)	-8.5
51	CCn1nc(C)c(/C=C2\CCCC3=C2OC(N)=C(C#N)C3c2c(C)nn(CC)c2C)c1C (centres undefined)	14.1
52	COC(=O)C1=C(C)N2C(=O)CSC2=NC1c1ccc2c(c1)OCO2 (centres undefined)	-2.2
53	CCNC(=S)N/N=C/c1sccc1C	-3.4
54	COc1ccc(NC(=O)CCl)cn1	13.2
55	CC(=O)OC[C@H]1O[C@@H](O/N=C/C[C@@H]2C=C[C@H](OC(C)=O)[C@@H](COC(C)=O)O2)[C@H](OC(C)=O)[C@@H](OC(C)=O)[C@@H]1OC(C)=O	8.9
56	S=c1[nH]nc(-c2ccccn2)n1/N=C/c1ccco1	-5.5
57	CCNC(=S)N/N=C/c1ccc(F)cc1	5.5
58	CCOCC(=O)Nc1c(C)n(C)n(-c2ccccc2)c1=O	-4.6
59	Cc1nc(NC(=O)c2ccccc2)sc1-c1csc(Nc2cccc(F)c2)n1	5.5
60	CCCCCCN(C(=O)CCCCCN1C(=O)NC(c2ccc(C3CCCCC3)cc2)C(C(=O)OCc2ccccc2)=C1C)C(C(=O)NCCCC)c1ccc(OCC(=O)OC)c(C(=O)OC)c1 (centres undefined)	-3.6

entry	Compound	BJeLR lethal
61	Cc1cccc(N2CCN(C(=O)c3ccc4c(c3)NC(=O)C(CSCc3cccc(F)c3)N4)CC2)c1C (centres undefined)	3.3
62	Cc1[nH]nc2nc3c(c(OC(=O)c4ccccc4)c12)c(=O)n(C)c(=O)n3C	-3.6
63	CCNC(=O)[C@@H]1CCCN1C(=O)[C@H](CCCN=C(N)N)NC(=O)[C@H](CC(C)C)NC(=O)[C@@H](CC(C)C)NC(=O)[C@H](Cc1ccc(O)cc1)NC(=O)[C@H](CO)NC(=O)[C@H](Cc1c[nH]c2ccccc12)NC(=O)[C@H](Cc1cnc[nH]1)NC(=O)[C@@H]1CCC(=O)N1	-16.6
64	O=c1oc2cc([N+](=O)[O-])ccc2nc1/C=C(O)/C=C/c1ccccc1	-9.4
65	S=C1NC2(CCS1)Oc1ccccc1C1CC(c3ccccc3)=NN12 (centres undefined)	4.0
66	COc1ccc(N(CC(=O)N/N=C(\C)c2cccs2)S(=O)(=O)c2ccccc2)cc1Cl	0.5
67	Nc1ccc(O)c2ccccc12	3.1
68	COC(=O)[C@@H]1CC[C@H](C)[C@@H](c2ccc(C)cc2)N1C(=O)c1ccc(/C=N/O[C@@H](C)c2cn([C@H](CO)Cc3ccccc3)nn2)cc1	-0.2
69	Cc1ccc(C(=O)N[C@@H](C)CN2C3=NC[C@H](Cc4ccccc4)N3C[C@H]2Cc2ccc(O)cc2)cc1Br	-1.4
70	CN(C)/C=C1/C(=O)N(c2ccc([N+](=O)[O-])cc2)N=C1c1ccccc1	-5.7
71	C=CCc1cccc([C@@H]2[C@@H](C)CC[C@H]3C(=O)N4[C@@H](c5cc(OC)c(OC)c(OC)c5)c5[nH]c6ccccc6c5C[C@H]4C(=O)N23)c1	23.9
72	CCn1cc(C(=O)O)c(=O)c2cc3c(cc21)OCO3	-1.0
73	C#CCOCCOCCOCCNc1nc(N2CCN(C(=O)[C@H]([C@@H](C)CC)n3cc([C@@H](N)CO)nn3)CC2)nc(N2CCN(C(=O)[C@H]([C@@H](C)CC)n3cc([C@@H](N)CO)nn3)CC2)n1	-1.8
74	CCNc1ccccc1CP(=O)(c1ccccc1)c1ccccc1O (centres undefined)	4.5
75	COc1ccc(C2C(C(C)=O)=C(C)N=c3s/c(=C/c4ccc5c(c4)OCO5)c(=O)n32)cc1 (centres undefined)	-4.4
76	CC(=O)OC[C@H]1O[C@H](C/C=N/OC[C@@H](O)[C@H]2O[C@@H]3OC(C)(C)O[C@@H]3[C@H]2O)C=C[C@@H]1OC(C)=O	5.4
77	COc1ccc(CNC(=O)c2ccc(N3CCC4(CC3)CC(c3ccc(Cl)cc3)=NO4)c(N)c2)cc1	9.3
78	O=C(CCl)c1ccc2c(c1)CCN2C(=O)C1CC1	-2.8
79	CCN1C(=O)/C(=c2\s/c(=C3\Sc4ccccc4N3C)c(=O)n2C)N(C)C1=S	9.2
80	Cc1ccc2[nH]c3c(N4CCCCCC4)ncnc3c2c1	3.4

entry	Compound	BJeLR lethal
81	COC(=O)[C@@]1(Cc2ccc(F)cc2)[C@H]2c3cc(C(=O)N(C)C)n(Cc4ccc(OC)c(OC)c4)c3C[C@H]2CN1C(=O)c1ccccc1	-8.1
82	Fc1ccccc1/C=N/Nc1nc(-c2ccccn2)nc2ccccc12	13.9
83	CC1(C)C(=O)OC(c2cccn2-c2cccc([N+](=O)[O-])c2)C2(CCCCC2)C1=O (centres undefined)	-3.9
84	CC(C)c1nc2c(c(=O)c3ccccc3n2C)c(=O)n1CCc1ccccc1	14.4
85	CC1(OC(=O)c2cnc3ccccc3n2)C(=O)C=C2C=C(c3ccc(C#N)cc3)OC=C2C1=O (centres undefined)	8.1
86	CC(/C=N/n1c(-c2ccccn2)n[nH]c1=S)=C\c1ccccc1	5.4
87	CC(=O)Cc1nnn(-c2cc(C)on2)n1	8.0
88	CC1=NNC(=O)C1C(c1ccccc1)C1C(=O)NN=C1C (centres undefined)	1.0
89	COc1ccc2cc(/C=N/NC(=O)CN(c3ccccc3)S(=O)(=O)c3ccccc3)c(Cl)nc2c1	-1.4
90	CC(=O)Nc1ccc(OS(=O)(=O)c2ccc(C(C)(C)C)cc2)cc1	1.1
91	Cc1sc2ncnc(SCC(=O)c3ccc(Cl)s3)c2c1C	-2.1
92	CCC/C(=N/Nc1ccc(Cl)cc1)c1cnnc(-c2ccccc2)n1	-5.0
93	Cc1ccc(-c2ccc(/C=C(\C#N)C(=O)Nc3cc(C)nn3-c3ccccc3)o2)cc1	5.4
94	Cc1c(C(=O)O)sc(S(=O)(=O)N2CCNCC2)c1C(=O)O	-2.9
95	O=C(O)c1ccccc1N(c1ccccc1)c1ccccc1	5.5
96	CCc1ccc(/C=C2\SC(=S)N(CCC(=O)NC3=NCCS3)C2=O)cc1	-7.0
97	CCCC[C@@H]1C[C@H]1[C@@H](NC(=O)c1ccco1)c1ccccc1C(F)(F)F	-10.7
98	CC(C)c1nnc(NC(=O)c2nc(S(=O)(=O)Cc3ccccc3F)ncc2Cl)s1	2.3
99	O=C(CNC1CCCCCC1)Nc1ccc(N2CCCC2)cc1	-3.6
100	Brc1cccc(/C=N/Nc2nc(N3CCCCC3)nc(N3CCCCC3)n2)c1	-0.8

entry	Compound	BJeLR lethal
101	N#CCOc1ccc2oc(-c3ccco3)cc(=O)c2c1	4.6
102	Cn1cc([N+](=O)[O-])c(C(=O)Nc2cc(Oc3cccnc3)cc([N+](=O)[O-])c2)n1	0.3
103	CC1=CC(C#N)(C#N)C(C#N)(C#N)C(c2ccccc2)N1 (centres undefined)	-1.1
104	C#CCOCCOCCOCCNc1nc(N2CCN(C(=O)[C@H](Cc3ccc(O)cc3)n3cc([C@@H](N)C(C)CC)nn3)CC2)nc(N2CCN(C(=O)[C@H](Cc3cc4ccccc4[nH]3)n3cc([C@@H](N)CC(C)C)nn3)CC2)n1 (some centres undefined)	-8.5
105	O=S(=O)(Nc1cc(Sc2cccc3cccnc23)c(O)c2ccccc12)c1ccccc1	125.2*
106	CC(=O)c1cc2c(cc1NC(=O)CSc1nc3ccccc3[nH]1)OCO2	-8.0
107	COC(=O)N1CCN(C(=O)Cc2ccc(Cl)c(Cl)c2)C(CN2CCCC2)C1 (centres undefined)	12.7
